Bioassay records: PubChem, several laboratories
HSV augment – HSV replication enhancement; HSV replication augmentation in cells, fold increase; maximum fold increase; actives 0.005% (n = 220,000);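 active = peak rise of 1.5-fold or more in the series; tested in PC3 cells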;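 also: first round at 10 µM; read as green reporter fluorescence; hits show the peak of a series up to 25 µM; 1 = signal of infected wells without compound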
Insulin prom inh – TRM-6 insulin promoter activity inhibition; TRM-6 cells (human fetal islet line), insulin promoter-eGFP reporter, imaging; reporter expression induced with tamoxifen; inhibition, % at 2 µM; actives 0.9% (n = 130,000);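 active = inhibition above the mean plus 3 SD, with well images judged a real hit on visual review, cut at about 60% in these data, passing the limit was not always enough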
GALR2 agonist – GALR2 (human) receptor agonism; activation, %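 (tested at 5 µM)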; AID 803; GALR2-expressing cells, agonist activation read-out; actives 0.48% (n = 140,000);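 active = above mean plus 3 SD of all compounds, about 5% in these data, not always enough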;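 also: 0% = vehicle buffer wells and 100% = reference agonist at full effect; tested in CHO reporter cells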
Target sequence (O43603 whole entry, looked up): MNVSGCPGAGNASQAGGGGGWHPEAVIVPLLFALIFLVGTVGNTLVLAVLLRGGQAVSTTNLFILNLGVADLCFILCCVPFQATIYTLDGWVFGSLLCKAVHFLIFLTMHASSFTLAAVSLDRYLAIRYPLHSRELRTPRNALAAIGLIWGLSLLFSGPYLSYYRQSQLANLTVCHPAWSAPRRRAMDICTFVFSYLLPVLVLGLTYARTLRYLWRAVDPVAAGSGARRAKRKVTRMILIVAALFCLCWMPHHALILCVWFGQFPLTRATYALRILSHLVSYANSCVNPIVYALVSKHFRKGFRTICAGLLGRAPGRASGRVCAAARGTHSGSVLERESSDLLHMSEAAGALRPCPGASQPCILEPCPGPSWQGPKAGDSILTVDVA
RGS16-Gao HTS – modulates binding between human RGS16 and Galphao | O15492+P09471 | bead-based flow cytometry RGS16-Galphao binding, fluorescence; actives lie on both sides | binding response (% of control), % at 10 µM | actives 0.38% (n = 220,000) | AID 1441;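 active = below 25% or above 175%, edge rows of some plates excepted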;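 also: Galphao activated by GDP with aluminum fluoride before binding; 100% = wells without compound and 0% = beads without RGS; some results beyond the cut were filed as inactive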
Target sequence (O15492 whole entry, looked up): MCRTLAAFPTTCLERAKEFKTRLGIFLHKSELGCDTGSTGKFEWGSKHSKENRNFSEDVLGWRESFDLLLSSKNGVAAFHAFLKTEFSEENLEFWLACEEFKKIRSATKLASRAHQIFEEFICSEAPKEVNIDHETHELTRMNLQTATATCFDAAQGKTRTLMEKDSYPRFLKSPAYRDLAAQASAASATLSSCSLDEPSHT
Target sequence (P09471 whole entry, looked up): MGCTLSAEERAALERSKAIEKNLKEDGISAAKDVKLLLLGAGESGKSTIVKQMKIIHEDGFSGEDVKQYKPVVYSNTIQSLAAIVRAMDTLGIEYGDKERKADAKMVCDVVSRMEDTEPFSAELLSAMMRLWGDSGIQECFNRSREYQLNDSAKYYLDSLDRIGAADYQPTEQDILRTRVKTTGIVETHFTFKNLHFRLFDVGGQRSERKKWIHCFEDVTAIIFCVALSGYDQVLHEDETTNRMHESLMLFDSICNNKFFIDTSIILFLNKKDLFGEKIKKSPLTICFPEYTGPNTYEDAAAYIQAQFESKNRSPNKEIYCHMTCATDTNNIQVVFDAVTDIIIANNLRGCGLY
PKD1 kinase inh – PKD1 (human) kinase inhibition; AID 797; PKD1 kinase fluorescence polarization assay; inhibition, %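 (about 10 µM by stock and volumes)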; Q15139; actives 0.056% (n = 200,000);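 active = inhibition of 50% or more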;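 also: controls were vehicle for no effect and a reference inhibitor for full effect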
Insulin prom inh cell count – further read-out of Insulin prom inh, marked with its call; normalized cell count, %; measured here: cell count, toxicity; reference of the scale not given here;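 cells exposed to compound for 48 h; stained nuclei by imaging scaled within each plate; lower means fewer cells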
HSV augment primary fold – also measured in HSV augment; calls as there; fold increase; compound at 10 µM; measured here: primary screen fold increase 10 uM; tested in PC3 cells;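 GFP signal in the first replicate; 1 = infected wells without compound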
* = called active by the depositor; i = inactive; nt = not tested or not shown.

Structure | PKD1 kinase inh | GALR2 agonist | Insulin prom inh cell count | HSV augment | Insulin prom inh | HSV augment primary fold | RGS16-Gao HTS
CCOc1cc(/C=C(\C#N)C(=O)NCc2cccnc2)ccc1O | -4 | nt | 78 | i | -24 | 0.94 | 101
CN(C)CCCNC(=O)c1ccccc1Oc1ccccc1 | nt | nt | nt | i | nt | 1.2 | 97
CCn1nnnc1NC(=O)c1ccc2ccccc2c1 | 1 | nt | 84 | i | 9 | 0.94 | 103
CCn1c(COc2ccccc2C)nnc1SCC(=O)O | -3 | -1.8 | 105 | i | -21 | 0.76 | 102
c1cnc2ccc(C(c3nnnn3C3CCCC3)N3CCN4CCCC4C3)cc2c1 (stereo not drawn) | -4 | -3.3 | 217 | i | -24 | 0.83 | 102
Cc1ccc(CN2CCC(c3cc(-c4cccs4)n[nH]3)CC2)cc1 | -14 | nt | 74 | i | -46 | 0.82 | 87
Cn1ncc(Cl)c1C(=O)N/N=C/c1ccccn1 | 18 | -2.5 | 116 | i | -15 | 0.93 | 96
COc1cccc(C2(c3cccc(OC)c3)CC2C(=O)Nc2cccc3ccccc23)c1 (stereo not drawn) | -1 | -1.0 | nt | i | nt | 1 | 100
N/C(Cc1ccc(Cl)c(Cl)c1)=N\OC(=O)c1cccs1 | 19 | -2.8 | 103 | i | 11 | 0.9 | 97
Cc1scc(C(=O)N/N=C/c2ccc(Cl)s2)c1C | 3 | -0.4 | nt | i | nt | 0.87 | 109
O=C(c1ccc(COc2ccccc2Br)cc1)N1CCCCCC1 | 6 | nt | 121 | i | 12 | 0.9 | 97
Cc1ccc(Oc2cnc3ccccc3n2)cc1 | -1 | -2.1 | nt | i | nt | 0.87 | 100
CC(=O)Nc1ccc(OCC(O)CN2CCN(c3cccc(Cl)c3)CC2)cc1 (stereo not drawn) | -5 | 0.7 | 70 | i | 47 | 0.86 | 96
O=S(=O)(Cc1cc(-c2ccccc2Cl)no1)c1ccccc1 | -2 | nt | nt | i | nt | 0.87 | 103
Cc1ccc(NC(=O)CNc2ccc(OC(C)C)cc2)c(C)c1 | -3 | -1.7 | 96* | i | 75* | 0.78 | 101
c1ccc(Cc2nnc3sc(-c4cccnc4)nn23)cc1 | 3 | 0.5 | 160 | i | -39 | 0.99 | 98
Cc1cc(Nc2ccccc2)n(C(=O)c2ccccc2)n1 | -7 | -3.2 | 104 | nt | -6 | nt | 100
CCOc1ccc(-c2cnc3ccccc3n2)cc1 | nt | nt | nt | i | nt | 0.98 | 108
CCn1c(SCC(=O)Nc2nc(C)cs2)nnc1-c1ccoc1C | -1 | -3.1 | 79 | i | -1 | 0.84 | 101
NC(=O)C1CCN(C(=O)OCc2ccccc2)CC1 | -2 | -1.5 | 114 | i | 10 | 0.9 | 94
COc1cc(OC)c(S(=O)(=O)NC(C)C)cc1C(=O)O | nt | nt | nt | i | nt | 0.98 | 98
COc1cc(/C=C/C(=O)OCC(=O)NC(=O)NC(C)C)cc(OC)c1OC | 1 | nt | 124 | i | -11 | 0.99 | 103
Cc1ccc(NC(=O)c2c(NC(=O)CCC(=O)O)sc3c2CCCCC3)cc1 | -6 | nt | nt | i | nt | 1.2 | 93
CCNC(=S)Nc1cccc(S(=O)(=O)Nc2ccccc2OC)c1 | nt | nt | nt | i | nt | 0.87 | 104
COC(=O)C1=C(N)OC2=C(C(=O)CC(C)(C)C2)C1c1cccnc1 (stereo not drawn) | 9 | -1.6 | 69 | i | 21 | 0.81 | 101
CN1C(=O)C(O)(CC(=O)c2ccncc2)c2ccccc21 (stereo not drawn) | 1 | -1.9 | 89 | i | 4 | 0.99 | 111
COc1ccc(-c2nc(CN3CCC(C(=O)N4CCc5ccccc54)CC3)c(C)o2)cc1OC | -7 | -2.6 | nt | i | nt | 0.81 | 93
O=C(N/N=C/c1ccc(Br)s1)c1ccco1 | nt | nt | nt | i | nt | 0.99 | 100
COc1ccc(C2CC(c3ccccc3)=NN2C(=O)COC(=O)c2cnc(Cl)c(Cl)c2)cc1 (stereo not drawn) | -6 | -1.3 | 69 | i | 48 | 0.97 | 122
O=C(CCCCCNC(=O)c1ccccc1)N/N=C/c1ccccc1 | 6 | -0.5 | 133 | i | -7 | 1 | 99
Cc1ccc(NS(=O)(=O)c2cccc(C(=O)n3ncc(C#N)c3N)c2)c(C)c1 | -7 | -2.0 | nt | i | nt | 0.82 | 99
Cc1ccc(-n2ncc3c(SCC(=O)Nc4cc(C)on4)ncnc32)c(C)c1 | -8 | nt | 143 | i | 22 | 0.73 | 111
Cc1c(C(=O)c2ccc([N+](=O)[O-])cc2)c(=O)n(C)c(=O)n1C | -4 | nt | 98 | i | 0 | 1.1 | 100
O=C(Nc1ccc2c(c1)OCO2)c1cccc(Cl)c1 | -2 | -2.3 | 148 | i | -5 | 0.83 | 103
Clc1ccc(-n2nnnc2-c2ccccc2)cc1Cl | -7 | -0.6 | 131 | i | 19 | 1.1 | 100
Cc1cc(-c2nnc(CCC(=O)N(C)C(C)c3cccs3)o2)no1 (stereo not drawn) | nt | nt | nt | i | nt | 0.99 | 98
c1coc(CN(Cc2cccs2)Cc2nnnn2C2CCCCC2)c1 | -10 | 0.7 | 129 | i | 19 | 0.95 | 86
Cn1cnnc1SCC(=O)Nc1ccc(N2CCOCC2)cc1 | 0 | nt | nt | i | nt | 0.98 | 101
O=C(Nc1ccccc1)c1ccn[nH]1 | -1 | -2.9 | 210 | i | -37 | 0.94 | 101
Cc1nc2ccccn2c1C(=O)Nc1ccc(Cl)cc1 | -4 | nt | nt | i | nt | 0.83 | 101
CC(C(=O)N1CCCc2ccccc21)N1CCN(S(=O)(=O)c2ccccc2F)CC1 (stereo not drawn) | -9 | -0.8 | 89 | i | -50 | 0.93 | 102
Cc1cccc(C(=O)NC(C(=O)Nc2ccccc2N2CCOCC2)C(C)C)c1 (stereo not drawn) | 6 | nt | nt | i | nt | 0.92 | 99
COc1cnc(SC(C)C)[nH]c1=O | -10 | nt | nt | i | nt | 1 | 87
CC(C)C(=O)NNC(=O)c1ccccn1 | 9 | -0.8 | 98 | i | 0 | 0.96 | 106
CCOC(=O)c1c(C)[nH]c(C(=O)CSc2nnnn2-c2ccccc2)c1C | 2 | 0.8 | 116 | i | -39 | 0.87 | 100

Compounds above that have an aryl methoxy group:
Structure | PKD1 kinase inh | GALR2 agonist | Insulin prom inh cell count | HSV augment | Insulin prom inh | HSV augment primary fold | RGS16-Gao HTS
COc1cccc(C2(c3cccc(OC)c3)CC2C(=O)Nc2cccc3ccccc23)c1 (stereo not drawn) | -1 | -1.0 | nt | i | nt | 1 | 100
COc1cc(OC)c(S(=O)(=O)NC(C)C)cc1C(=O)O | nt | nt | nt | i | nt | 0.98 | 98
COc1cc(/C=C/C(=O)OCC(=O)NC(=O)NC(C)C)cc(OC)c1OC | 1 | nt | 124 | i | -11 | 0.99 | 103
CCNC(=S)Nc1cccc(S(=O)(=O)Nc2ccccc2OC)c1 | nt | nt | nt | i | nt | 0.87 | 104
COc1ccc(-c2nc(CN3CCC(C(=O)N4CCc5ccccc54)CC3)c(C)o2)cc1OC | -7 | -2.6 | nt | i | nt | 0.81 | 93
COc1ccc(C2CC(c3ccccc3)=NN2C(=O)COC(=O)c2cnc(Cl)c(Cl)c2)cc1 (stereo not drawn) | -6 | -1.3 | 69 | i | 48 | 0.97 | 122
COc1cnc(SC(C)C)[nH]c1=O | -10 | nt | nt | i | nt | 1 | 87

(more compounds)
Structure | PKD1 kinase inh | GALR2 agonist | Insulin prom inh cell count | HSV augment | Insulin prom inh | HSV augment primary fold | RGS16-Gao HTS
COc1ccc(OCC(=O)Nc2ccc(N3CCN(C(=O)c4ccco4)CC3)cc2)cc1 | 0 | nt | nt | i | nt | 0.8 | 102
CCN(CC)c1ccc2c(O)cc(=O)oc2c1 | -7 | nt | 89 | i | 0 | 1.1 | 109
CCC(c1ccccc1)c1nc(-c2cccnc2)no1 (stereo not drawn) | -5 | -0.3 | nt | i | nt | 0.92 | 94
N#C/C(=C\C=C\c1ccccc1[N+](=O)[O-])C(=O)NC1CCCCC1 | -2 | nt | nt | i | nt | 0.69 | 102
O=C(CCS(=O)(=O)c1ccc(Br)cc1)Nc1ccc(Br)cc1F | -1 | -0.7 | 56 | i | -40 | 1 | 103
Cc1csc2nc(CNS(=O)(=O)c3ccc4c(c3)CCCC4)cn12 | -6 | -2.6 | nt | i | nt | 0.86 | 100
Cc1ccc(C)n1-c1ncn[nH]1 | -7 | -0.3 | 83 | i | 33 | 0.91 | 102
CC1CN(c2ccccc2)CCN1Cc1nc(Cc2ccccc2)no1 (stereo not drawn) | 1 | nt | 109 | i | -79 | 0.95 | 107
Cc1ccccc1OCC(=O)N/N=C/c1ccco1 | -2 | -1.3 | 99 | i | 0 | 0.93 | 86
CCOC(=O)CNC(=O)C1Cc2ccccc2CN1S(=O)(=O)c1cccs1 (stereo not drawn) | -1 | nt | nt | i | nt | 0.96 | 99
O=C(O)CCN1C(=O)c2ccc(NC(=O)Cc3ccc(Cl)cc3)cc2C1=O | -10 | nt | nt | i | nt | 1.1 | 99
CC(CN(C)Cc1nc(Cc2cccc(C(F)(F)F)c2)no1)CN1CCCC1 (stereo not drawn) | 0 | nt | 102 | i | -138 | 0.97 | 99
Cc1ccc(CN2CCN(Cc3ccccc3)C(CCO)C2)s1 (stereo not drawn) | -1 | nt | 142 | i | 5 | 0.93 | 115
CCN(CC)CCn1c(=N)n(CC(O)COc2ccccc2)c2ccccc21 (stereo not drawn) | nt | nt | nt | i | nt | 0.83 | 87
Cc1cc(N)n2nc(-c3ccc(C(C)(C)C)cc3)cc2n1 | -1 | 0.6 | nt | i | nt | 0.81 | 108
CC(=O)c1c(C)c2c(n1CCN(C)C)CCCC2 | -5 | -1.4 | 94 | i | 14 | 1.1 | 96
COc1ccc(S(=O)(=O)NCCSCc2ccccc2C)cc1Br | -4 | -1.2 | 109 | i | 31 | 0.86 | 87
Cc1ccc(C(=O)COC(=O)CNS(=O)(=O)c2ccccc2)cc1[N+](=O)[O-] | 1 | -2.1 | nt | i | nt | 0.85 | 92
COc1ccccc1NC(=O)Oc1ccc(C(C)=O)cc1 | 4 | -1.4 | 84 | i | 16 | 0.95 | 104
CC(C)N1CC(C(=O)O)CC1=O (stereo not drawn) | 4 | 0.1 | 128 | i | 71 | 1.1 | 98
CCCc1nc2sc3c(SCC(=O)NCc4ccco4)ncnc3c2c2c1CCC2 | -7 | 0.2 | 63 | i | -4 | 0.97 | 82
Cc1nn(C)cc1CNC(=O)C1C2CCC(C2)C1C(=O)O (stereo not drawn) | 2 | nt | nt | i | nt | 1 | 100
O=C(Nc1ccc(NC(=O)c2cccs2)cc1)c1ccc2c(c1)OCCO2 | nt | nt | nt | i | nt | 0.84 | 98
O=C(NCC1CCCO1)c1ccc(Br)o1 (stereo not drawn) | 1 | nt | 66 | i | 11 | 1.1 | 105
CC1=CC(C)(C)Nc2ccc(OC(=O)CN3C(=O)CCC3=O)cc21 | 9 | -0.3 | 95 | i | 16 | 1 | 98
Cc1ccc([N+](=O)[O-])cc1/C=N/Nc1nnnn1-c1ccccc1 | -3 | 0.1 | 70 | i | 11 | 1 | 103
CC(C)NC(=O)COC(=O)/C=C/c1ccc(F)cc1 | -4 | -1.9 | 78 | i | 2 | 0.97 | 96

Shown with values under each structure: entries from further up.
Every second line gives: PKD1 kinase inh | GALR2 agonist | Insulin prom inh cell count | HSV augment | Insulin prom inh | HSV augment primary fold | RGS16-Gao HTS
- COc1ccc(S(=O)(=O)NCCSCc2ccccc2C)cc1Br
  -4 | -1.2 | 109 | i | 31 | 0.86 | 87
- CC(C)NC(=O)COC(=O)/C=C/c1ccc(F)cc1
  -4 | -1.9 | 78 | i | 2 | 0.97 | 96
- O=C(Nc1ccc(NC(=O)c2cccs2)cc1)c1ccc2c(c1)OCCO2
  nt | nt | nt | i | nt | 0.84 | 98
- CCCc1nc2sc3c(SCC(=O)NCc4ccco4)ncnc3c2c2c1CCC2
  -7 | 0.2 | 63 | i | -4 | 0.97 | 82
- CC(C)N1CC(C(=O)O)CC1=O (stereo not drawn)
  4 | 0.1 | 128 | i | 71 | 1.1 | 98
- CC1=CC(C)(C)Nc2ccc(OC(=O)CN3C(=O)CCC3=O)cc21
  9 | -0.3 | 95 | i | 16 | 1 | 98

Compounds as they come; about 1.2% have a hit in one of these screens.
